From PubChem
MLL AF4-AF9 inh: blocks AF4 peptide binding to human AF9; AlphaScreen, biotin-AF4 peptide binding to FLAG-AF9; inhibition, % at 10 µM; 0.47% of 350,000 active; P42568;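 active = every replicate reaching a set inhibition limit, whatever the replicate mean, cut at about 25% in these data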;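 also: 0% = plate neutral control median and 100% = total signal loss; the record names both 10 and 1 µM as test concentration; the first replicate is given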
Target sequence (P42568 whole entry, looked up): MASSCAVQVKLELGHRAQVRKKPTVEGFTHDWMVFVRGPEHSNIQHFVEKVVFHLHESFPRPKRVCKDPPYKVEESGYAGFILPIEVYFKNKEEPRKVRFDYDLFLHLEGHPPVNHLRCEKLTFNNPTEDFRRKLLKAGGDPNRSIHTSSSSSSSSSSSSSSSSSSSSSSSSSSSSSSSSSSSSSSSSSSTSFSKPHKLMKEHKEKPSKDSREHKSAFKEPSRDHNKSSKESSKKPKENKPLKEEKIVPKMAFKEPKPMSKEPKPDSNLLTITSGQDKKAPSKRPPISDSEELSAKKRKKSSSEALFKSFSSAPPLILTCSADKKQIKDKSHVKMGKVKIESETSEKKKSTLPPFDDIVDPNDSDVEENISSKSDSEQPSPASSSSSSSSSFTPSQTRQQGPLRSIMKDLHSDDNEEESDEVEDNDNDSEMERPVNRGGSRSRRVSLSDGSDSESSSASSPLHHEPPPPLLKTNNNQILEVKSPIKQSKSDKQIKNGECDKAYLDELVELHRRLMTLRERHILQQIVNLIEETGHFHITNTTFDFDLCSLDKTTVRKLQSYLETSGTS
rRNA inh HTS: selective bacterial rRNA inhibition in E. coli; GFP signal change (wild-type ribosome), % (concentration not given with the values); E. coli WT GFP vs humanized-ribosome RFP mutants, fluorescence, 24 h; stronger effect = lower value; DMSO median 0, no signal -100; AID 720706; 1.6% of 350,000 active;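 active = significant combined selectivity score with lowered wild-type GFP, culture density cut under 30%, mutant RFP and density less affected; inactive = any of these conditions unmet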; also: one replicate is shown; some compounds called inactive have numbers as strong as hits
rRNA inh HTS OD600: recorded beside rRNA inh HTS, whose call it bears; OD600 change, %; measured here: OD600 growth;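 optical density of the mix in the first replicate; 0 = DMSO median and -100 = no signal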
rRNA inh HTS RFP: recorded beside rRNA inh HTS, whose call it bears; RFP signal change, %; measured here: RFP humanized mutant strains;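 first replicate; 0 = DMSO median and -100 = no signal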
* marks the source's active call; other numbers are inactive results; & = joins results of further samples.

SMILES	MLL AF4-AF9 inh	rRNA inh HTS	rRNA inh HTS OD600	rRNA inh HTS RFP
C[C@@H]1CN([C@@H](C)CO)C(=O)c2cc(NS(=O)(=O)c3cccs3)ccc2O[C@@H](C)CCCCO[C@H]1CN(C)C(=O)c1ccncc1	-2.8	0.2	-1.4	0.8
C[C@@H]1CN([C@H](C)CO)C(=O)c2cc(/C=C/c3ccccc3)cnc2O[C@@H]1CN(C)S(=O)(=O)c1cn(C)cn1	-1.0	2.8	-4.3	1.7
Cc1cc2nc(-c3ccc(F)cc3)c(Cc3cccc(Cl)c3)n2c(C)c1Br	1.5	-1.9	-4.9	-1.5
O=C(C[C@@H]1C=C[C@H](NC(=O)Nc2cc(F)ccc2F)[C@@H](CO)O1)NCc1ccccn1	-2.8	0.2	0.9	0.5
CC1(C(=O)O)CCN1C(=O)c1ccccc1F (configuration not stated)	2.6	-2.6	4.1	0.4
CO[C@@H]1CN(C)C(=O)c2cc(NS(=O)(=O)c3ccccc3)ccc2OC[C@H](C)N(C(=O)NC(C)C)C[C@@H]1C	-10.7	-0.1	-2.1	1.9
CC(=O)Nc1ccc(CN(C)c2c(C)nc3ccc(C(=O)NCCCn4ccnc4)cn23)cc1	3.2	14.9	22.2	0.2
C[C@@H]1CCCCO[C@@H](CN(C)C)[C@H](C)CN([C@H](C)CO)C(=O)c2cc(NC(=O)NC3CCCCC3)ccc2O1	4.7	5.0	10.7	0.0
COC(=O)[C@]12C[C@H](CC(=O)NCc3cccc4ccccc34)C(=O)N(Cc3ccccc3)C1=C[C@H](C(C)(C)C)O[C@@H]2C	-5.4	10.3	9.3	-1.5
COc1ccc(S(=O)(=O)Nc2ccc3c(c2)C(=O)N([C@H](C)CO)C[C@@H](C)[C@H](CN(C)Cc2ccc(Oc4ccccc4)cc2)O3)cc1	1.7	-1.0	-2.6	1.5
N#C[C@H]1N[C@H](CO)[C@H]1c1ccc(C#CC2CCCC2)cc1	1.4	1.1	-2.1	-0.6
COCC(=O)N(C)C[C@H]1Oc2cc(C#Cc3cccnc3)ccc2S(=O)(=O)N([C@H](C)CO)C[C@H]1C	0.2&-0.6&-1.2	8.6&-2.3	-2.7&0.3	-0.1&-1.3
C[C@@H]1CN([C@H](C)CO)C(=O)Cc2cc(NC(=O)Nc3cccc4ccccc34)ccc2O[C@@H]1CN(C)C(=O)Nc1cccc2ccccc12	-0.8	-0.6	7.0	2.3
COc1ccc(-c2nc3ccc(Br)cn3c2Cc2ccc(C)cc2)cc1OC	6.3	-18.5	-7.9	-2.2
COc1ccccc1-c1cn(CC[C@H]2CC[C@H](NC(=O)C3CCOCC3)[C@H](CO)O2)nn1	-0.7	2.8	-0.9	-1.2
COc1ccccc1CN1C[C@@H]2N[C@H](C1)C2c1ccc(-c2ccccc2)cc1 (some centres not stated)	14.6	-59.4	-80.3	-13.2
COCC(=O)Nc1ccc2c(c1)[C@@H]1C[C@@H](CC(=O)NC3CCCCC3)O[C@H](CO)[C@@H]1O2	0.8	0.1	0.9	-0.6
C[C@@H]1CN([C@@H](C)CO)C(=O)c2cccc(NC(=O)c3cnccn3)c2O[C@@H]1CN(C)C	-3.3	6.4	5.9	-0.3
COc1ccc(C(O)c2ncc(-c3cccc(F)c3)[nH]2)cc1F (configuration not stated)	5.5	7.3	9.8	1.9
CC(=O)N1CC2(C1)[C@H](c1ccc(-c3ccc(C#N)cc3)cc1)[C@@H](CO)N2CCC(F)(F)F	-19.8	-4.2	4.2	3.5
C[C@@H]1CN([C@@H](C)CO)C(=O)c2cc(NC(=O)CCC(F)(F)F)ccc2O[C@@H](C)CCCCO[C@@H]1CN(C)C(=O)CCC(F)(F)F	-2.4	-0.8	-7.8	-2.5
CNC(=O)C[C@@H]1CC[C@@H]2[C@@H](COc3ccc(NS(=O)(=O)c4ccccc4C)cc3C(=O)N2C)O1	-2.1	2.5	1.7	-1.9
COCC(=O)Nc1ccc2c(c1)C(=O)N(C)[C@H]1CC[C@H](CC(=O)OC)O[C@@H]1CO2	-6.6	0.9	3.6	-2.1
COC(=O)C[C@@H]1CC[C@H]2[C@@H](COC[C@H](O)CN2C(=O)Nc2ccccc2OC)O1	-1.8	-1.0	5.6	2.7

Results in MLL AF4-AF9 inh and rRNA inh HTS RFP (two entries from above):
SMILES	MLL AF4-AF9 inh	rRNA inh HTS RFP
C[C@@H]1CN([C@@H](C)CO)C(=O)c2cc(NC(=O)CCC(F)(F)F)ccc2O[C@@H](C)CCCCO[C@@H]1CN(C)C(=O)CCC(F)(F)F	-2.4	-2.5
COC(=O)C[C@@H]1CC[C@H]2[C@@H](COC[C@H](O)CN2C(=O)Nc2ccccc2OC)O1	-1.8	2.7

New compounds follow
SMILES	MLL AF4-AF9 inh	rRNA inh HTS	rRNA inh HTS OD600	rRNA inh HTS RFP
COc1ccc2c3c(n(C)c2c1)[C@@H](CO)N(C(=O)C1CCCCC1)CC31CCN(C)CC1	8.9	0.8	6.6	-4.5
CC(C)NC(=O)NCC[C@@H]1CC[C@@H](NS(=O)(=O)c2ccc(Oc3ccccc3)cc2)[C@H](CO)O1	8.3	2.4	-4.6	3.3
COc1cccc(NC(=O)N[C@H]2C=C[C@H](CC(=O)Nc3ccc(-c4ccccc4)cc3)O[C@@H]2CO)c1	1.2	-5.4	-7.1	23.2
CCCCNC(=O)C[C@@H]1C[C@@]2(C(=O)OCC)CCC=C2N(Cc2ccco2)C1=O	1.8	6.2	20.5	0.0
CCCNC(=O)C[C@@H]1CC[C@@H]2[C@@H](COc3ccc(NC(=O)NCC)cc3C(=O)N2C)O1	-0.9	5.9	7.6	-3.4
C[C@@H]1CN([C@@H](C)CO)C(=O)c2cccc(NC(=O)NC3CCCCC3)c2O[C@@H]1CN(C)Cc1ccc(C(F)(F)F)cc1	2.6	-6.4	-12.7	0.6
O=C(CCN1CCCCC1)NCC[C@@H]1CC[C@@H](NC(=O)C2CCOCC2)[C@@H](CO)O1	-3.0	1.0	2.0	0.0
CCCc1c(-c2cccc(Cl)c2)ncn1Cc1cccc(-c2ccccc2)c1	0.6	10.3	9.9	37.2
CCCC#Cc1ccc([C@@H]2[C@@H](CO)N3C(=O)CN(S(=O)(=O)c4ccccc4C)C[C@H]23)cc1	5.3	-15.9	-32.8	28.6
COCC(=O)Nc1ccc2c(c1)OC[C@@H](C)N(C(C)=O)C[C@@H](C)[C@@H](OC)CN(C)C2=O	-0.1	-0.5	0.8	-1.3
C[C@H](CO)N1C[C@H](C)[C@@H](CN(C)S(=O)(=O)c2cn(C)cn2)OCCCC[C@H](C)Oc2ccc(NC(=O)Nc3ccc(F)cc3)cc2C1=O	-1.1	-3.7	-4.0	0.7
C[C@@H]1CN([C@H](C)CO)C(=O)c2cc(NC(=O)Nc3ccccc3)ccc2O[C@@H]1CN(C)S(C)(=O)=O	-2.2	7.0	2.6	0.1
COc1ccc(S(=O)(=O)N[C@@H]2C=C[C@H](CC(=O)O)O[C@H]2CO)cc1	-3.0	1.3	7.6	-0.1
COc1ccc(S(=O)(=O)N(C)C[C@H]2OCCCC[C@H](C)Oc3ccc(NC(=O)NC4CCCCC4)cc3C(=O)N([C@H](C)CO)C[C@H]2C)cc1	-0.2	0.9	0.1	-0.9
C[C@@H]1CN([C@@H](C)CO)C(=O)c2cc(NC(=O)Cn3cnnn3)ccc2O[C@H]1CN(C)C(=O)Nc1ccccc1	-3.4	3.7	3.1	-1.0
N#C[C@@H]1[C@H](c2ccccc2-c2ccc(F)cc2)[C@H](CO)N1C(=O)NC1CCCC1	1.5	-9.4	-34.1	-3.4
CC(=O)N1CCCCN2[C@H](C1)[C@H](c1ccc(-c3ccncc3)cc1)[C@@H]2CO	0.7	7.8	13.7	-2.8
CC(C)NC(=O)N(C)C[C@@H]1OCc2cnnn2CCCC(=O)N([C@@H](C)CO)C[C@@H]1C	0.3	4.2	6.5	-4.3
O=C(NC1CCCC1)N1CCCCN2[C@H](CO)[C@H](c3ccc(-c4ccccc4)cc3)[C@@H]2C1	1.2	-57.5	-62.9	-6.4
O=C(NCc1ccccc1)c1cc(C2CCCN(S(=O)(=O)c3cccs3)C2)on1 (configuration not stated)	-1.6	-4.5	-4.0	11.7
C[C@@H]1CN([C@@H](C)CO)C(=O)c2c(c3ccccc3n2C)-c2ccccc2CO[C@@H]1CN(C)Cc1ccc(-c2ccccc2)cc1	2.3	4.2	15.6	-4.4
CCOC(=O)C1=CCN(S(=O)(=O)c2ccc(Br)cc2)C1c1cccc(C)c1 (configuration not stated)	1.3	-22.5	-20.2	-6.5
CCCC#Cc1ccc([C@H]2[C@@H](CO)N3CCCCN(C(=O)c4ccc5c(c4)OCO5)C[C@H]23)cc1	9.4	-58.3	-75.6	-9.8
CCCC(=O)Nc1ccc2c(c1)OC[C@H](C)N(CCC)C[C@@H](C)[C@H](OC)CN(C)C2=O	-3.3	-3.5	-2.3	-1.3
COc1ccc(S(=O)(=O)Nc2ccc3c(c2)CC(=O)N([C@@H](C)CO)C[C@H](C)[C@@H](CN(C)Cc2ccc(Oc4ccccc4)cc2)O3)cc1	2.8	0.2	6.9	1.0
COc1ccc(-c2cn(CC[C@@H]3CC[C@H](NS(=O)(=O)c4ccccc4C)[C@H](CO)O3)nn2)cc1	1.8	-6.3	-9.8	-3.9
Cc1noc(C)c1NC(=O)N(C)C[C@H]1Oc2ccc(NC(=O)C3CC3)cc2CC(=O)N([C@H](C)CO)C[C@H]1C	-3.1	2.1	2.5	1.3
CO[C@@H]1CN(C)C(=O)c2ccc(NC(=O)C3CC3)cc2OC[C@@H](C)N(C(=O)Nc2ccc(C(F)(F)F)cc2)C[C@H]1C	1.3	-53.9	-72.9	7.8
CCC(=O)N1C[C@H](C)[C@H](OC)CN(C)C(=O)c2cc(NS(=O)(=O)CC)ccc2OC[C@@H]1C	1.4	1.8	0.6	-1.1
CC(C)[C@H](C)NC(=O)N(C)C[C@H]1OCc2ccccc2-c2c(n(C)c3ccccc23)C(=O)N([C@H](C)CO)C[C@H]1C	-2.8	1.2	6.1	-4.6
C[C@H](NC(=O)C[C@H]1C[C@H]2c3cc(NS(C)(=O)=O)ccc3O[C@H]2[C@@H](CO)O1)c1ccccc1	-1.2	0.6	2.9	-0.1
CN(C)C(=O)C[C@@H]1C=C[C@@H](NC(=O)NC2CCCC2)[C@@H](CO)O1	-0.2	1.9	-3.3	-0.3
O=C(C[C@@H]1CC[C@@H]2[C@H](COC[C@H](O)CN2C(=O)c2cccnc2)O1)NC1Cc2ccccc2C1	-2.4	0.5	0.1	3.6
CN1C(=O)c2cc(NC(=O)Cc3cccs3)ccc2OC[C@H]2O[C@@H](CC(=O)NCCc3ccncc3)CC[C@H]21	-1.2	3.9	19.4	-0.1
O=C(C1CCOCC1)N1CC[C@@H]2[C@H]1c1cc(-c3cccc(F)c3)ccc1N[C@@H]2CO	-4.2	-6.0	1.8	0.3
O=C(C[C@@H]1C[C@H]2c3cc(NC(=O)CC4CC4)ccc3O[C@H]2[C@H](CO)O1)NCc1ccccn1	0.5	2.9	6.1	1.3
CO[C@H]1CN(C)C(=O)c2ccc(NC(=O)Nc3ccc(F)cc3)cc2OC[C@@H](C)NC[C@H]1C	-0.2	-0.6	4.0	1.4
C[C@H]1CN([C@@H](C)CO)C(=O)c2cc(NC(=O)Cc3cn(C)c4ccccc34)ccc2O[C@H]1CN(C)C(=O)Nc1ccc2c(c1)OCO2	4.6	-1.9	-6.1	3.6
CC(C)C#Cc1ccc([C@H]2[C@@H](CO)N3C(=O)CN(C(=O)Cc4ccccc4)C[C@@H]23)cc1	-1.8	-2.5	5.6	2.1
CS(=O)(=O)Nc1ccc2c(c1)[C@H]1C[C@H](CC(=O)NCc3cccnc3)O[C@H](CO)[C@H]1O2	-2.2	3.5	1.5	-1.4
C[C@H](NC(=O)[C@@H]1N[C@@H]2c3ccc(C4=CCCCC4)c(=O)n3C[C@@H]2[C@H]1CO)c1ccccc1	4.2	-5.2	-5.3	3.8
C[C@@H]1CCCCO[C@@H](CN(C)Cc2ccc(Cl)c(Cl)c2)[C@H](C)CN([C@@H](C)CO)C(=O)c2cc(NC(=O)Nc3ccc(F)cc3)ccc2O1	1.2	4.9	0.3	3.4
CC(=O)N1[C@@H]2Cn3c(ccc(-c4ccccc4)c3=O)[C@H]1[C@@H](C(=O)N1CCCCC1)[C@@H]2CO	0.4	0.8	2.6	-0.4
C[C@@H]1CCCCO[C@H](CN(C)C)[C@@H](C)CN([C@H](C)CO)C(=O)c2cc(NC(=O)Nc3ccc(F)cc3)ccc2O1	1.7	-1.9	6.0	-1.6
CO[C@H]1CN(C)C(=O)c2cc(NC(=O)NC(C)C)ccc2OC[C@H](C)N(C(=O)C2CCC2)C[C@@H]1C	-1.8	-0.2	2.6	-3.1
C[C@H]1CN([C@@H](C)CO)C(=O)c2cc(NC(=O)Nc3cccc4ccccc34)ccc2O[C@H]1CN(C)C(=O)NC1CCCCC1	-0.3	-2.5	-11.1	-2.6

Looked up by structure from above (4):
SMILES	MLL AF4-AF9 inh	rRNA inh HTS	rRNA inh HTS OD600	rRNA inh HTS RFP
CO[C@H]1CN(C)C(=O)c2cc(NC(=O)NC(C)C)ccc2OC[C@H](C)N(C(=O)C2CCC2)C[C@@H]1C	-1.8	-0.2	2.6	-3.1
C[C@H]1CN([C@@H](C)CO)C(=O)c2cc(NC(=O)Cc3cn(C)c4ccccc34)ccc2O[C@H]1CN(C)C(=O)Nc1ccc2c(c1)OCO2	4.6	-1.9	-6.1	3.6
C[C@H]1CN([C@@H](C)CO)C(=O)c2cc(NC(=O)Nc3cccc4ccccc34)ccc2O[C@H]1CN(C)C(=O)NC1CCCCC1	-0.3	-2.5	-11.1	-2.6
CC(C)C#Cc1ccc([C@H]2[C@@H](CO)N3C(=O)CN(C(=O)Cc4ccccc4)C[C@@H]23)cc1	-1.8	-2.5	5.6	2.1

The list is partial, so the mix of outcomes need not match the whole.
